Screens: PubChem, several laboratories
p97 inhibitor: human p97 ATPase inhibition. inhibition, % at 8 µM. P55072. recombinant p97 ATPase, Kinase-Glo ATP luminescence, 3 h. 220,000 compounds, 0.42% hits; in the data active means inhibition above about 15%;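 further: 0% = DMSO vehicle and 100% = wells lacking enzyme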
NPY1 pot ag: human NPY-Y1 potentiation or agonism, primary screen | P25929 | NPY-Y1 expressing cells, potentiator/agonist activation | activation, % at 3.6 µM | 220,000 compounds, 0.37% hits; in the data active means activation above about 33%, passing the limit was not always enough;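 further: cells stimulated with NPY at EC10 then isoproterenol at EC100; 0% = low agonist plus stimulus and 100% = saturating agonist plus stimulus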
Mdm2 ligase inh: blocks human Mdm2 ubiquitin ligase activity | Q00987 | cell-based MDM2 ubiquitination luciferase reporter, 2 h; 0 = plate control, 100 = twice control, blank-subtracted | signal enhancement, % at 5 µM | 210,000 compounds, 0.11% hits | AID 1230;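 active means signal enhancement of 30% or more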;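 further: luminescence tracks abundance of the self-degrading MDM2-luciferase fusion protein; higher signal means inhibition of MDM2 E3 ligase activity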
Target sequence (Q00987 whole entry, looked up, the tested form may be a part): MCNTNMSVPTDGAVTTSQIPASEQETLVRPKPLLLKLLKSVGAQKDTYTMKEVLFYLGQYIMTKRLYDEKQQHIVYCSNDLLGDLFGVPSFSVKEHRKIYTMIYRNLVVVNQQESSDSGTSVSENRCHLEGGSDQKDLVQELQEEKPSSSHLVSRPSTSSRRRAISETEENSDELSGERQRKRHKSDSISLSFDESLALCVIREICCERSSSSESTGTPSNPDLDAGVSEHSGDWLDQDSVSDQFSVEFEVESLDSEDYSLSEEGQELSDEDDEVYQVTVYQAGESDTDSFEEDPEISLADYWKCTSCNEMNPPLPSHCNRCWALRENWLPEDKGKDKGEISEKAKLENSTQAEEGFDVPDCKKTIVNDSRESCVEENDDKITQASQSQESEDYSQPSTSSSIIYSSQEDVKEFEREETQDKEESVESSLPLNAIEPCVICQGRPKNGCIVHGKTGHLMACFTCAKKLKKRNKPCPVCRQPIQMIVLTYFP
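Test system: mammalian cells stably expressing self-ubiquitinating, self-degrading MDM2 E3–luciferase fusion; Amount: 2000 cells in each well; Medium: DMEM; Schedule: 4 h settle plus 2 h compound, 37 °C; Technique: SteadyLite luciferase luminescence after 15 min room-temperature reagent incubation; Benchmarks: plate control and blank wells.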
RBBP9 inhibitor: blocks human serine hydrolase RBBP9; AID 1515; inhibition, % at 7.94 µM; 220,000 compounds, 0.2% hits; recombinant RBBP9, FP-Rh probe fluorescence polarization; O75884;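 active means inhibition above the campaign mean of all tested compounds plus 3 SD, cut at about 14% in these data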;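 further: plate controls were DMSO wells with RBBP9 for no effect and wells lacking RBBP9 protein for full effect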
Target sequence (O75884 whole entry, looked up): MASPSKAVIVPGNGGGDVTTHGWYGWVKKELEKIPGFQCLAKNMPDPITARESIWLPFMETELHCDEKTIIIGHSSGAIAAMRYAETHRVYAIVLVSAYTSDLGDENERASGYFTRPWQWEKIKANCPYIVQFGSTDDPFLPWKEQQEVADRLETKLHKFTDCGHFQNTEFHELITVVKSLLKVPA
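Test system – recombinant human RBBP9 · Input – RBBP9 2.5 µM in dispensing solution, pre-mixing · Medium – Tris buffer pH 8.0, NaCl, Pluronic · Schedule – preincubation 30 min plus labeling 45 min at 25 °C · Measured by – fluorescence polarization · Measure – % inhibition · Controls – DMSO and no-protein wells · Replicates – one well per compound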
NPY Y1 blocker: antagonists of human neuropeptide Y receptor Y1 | P25929 | HEK293-CNG Y1 cells, membrane potential fluorescence; NPY at EC95, then isoproterenol | AID 1040 | inhibition, % at 3.6 µM | 200,000 compounds, 1% hits;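 active means inhibition above the campaign mean inhibition of all tested compounds plus 3 SD, cut at about 20% in these data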;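 further: 0% = DMSO wells given NPY plus isoproterenol and 100% = isoproterenol alone without NPY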
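material = HEK293 cells with Y1 receptor plus CNG channel | also added = NPY 25 nM then isoproterenol 1 µM plus Ro 20-1724 25 µM | schedule = dye 3 h, compound 60 min room temperature, stimulation 45 min | measured by = membrane potential fluorescence | benchmarks = high control isoproterenol alone, low control NPY with isoproterenol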
Hck Nef HTS: human Hck-Nef kinase inhibition. Recombinant Hck-YEEI plus Nef, Z-Lyte FRET kinase assay. inhibition, % at 20 µM. 220,000 compounds, 0.68% hits;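 active means Hck-Nef kinase inhibition above about 50%, limit read from the data; inactive means inhibition below that limit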;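 further: 0% = DMSO with Hck plus Nef and 100% = Hck alone without Nef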
NPY2 pot ag: potentiators or agonists of human neuropeptide Y receptor Y2 | P49146 | cells expressing NPY-Y2, potentiator/agonist read-out | activation, % at 3.6 µM | 220,000 compounds, 0.45% hits; in the data active means activation above about 27%;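 further: cells stimulated with NPY near EC25 plus isoproterenol at EC100; 0% = vehicle plus submaximal agonist and 100% = vehicle plus saturating agonist; some results beyond the cut were filed as inactive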
Target sequence (P49146 whole entry, looked up): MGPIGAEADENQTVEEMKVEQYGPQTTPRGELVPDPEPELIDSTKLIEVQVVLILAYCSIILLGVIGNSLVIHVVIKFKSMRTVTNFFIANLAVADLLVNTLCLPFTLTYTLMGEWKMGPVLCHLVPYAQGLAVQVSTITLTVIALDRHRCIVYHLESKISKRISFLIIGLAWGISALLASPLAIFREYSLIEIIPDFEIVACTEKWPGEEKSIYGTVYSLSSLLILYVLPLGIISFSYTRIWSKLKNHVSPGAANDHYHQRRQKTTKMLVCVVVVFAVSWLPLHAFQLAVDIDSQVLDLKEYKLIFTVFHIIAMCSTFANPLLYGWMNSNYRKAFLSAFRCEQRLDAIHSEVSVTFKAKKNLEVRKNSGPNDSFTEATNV
The depositor's hits bear a star; x = no result given. A portion of the library; count on the stated rates, not on these rows.

Every second line gives: p97 inhibitor | NPY1 pot ag | Mdm2 ligase inh | RBBP9 inhibitor | NPY Y1 blocker | Hck Nef HTS | NPY2 pot ag
C=CCn1cnc2scc(-c3ccccc3)c2c1=O
→ 0 | 9 | -5 | 0 | 2 | 12 | 3
O=S(=O)(c1cc(-c2nc3ccccc3s2)ccc1Cl)N1CCOCC1
→ 5 | -16 | -6 | -2 | -2 | 3 | 13
Cc1nn2c(N3CCN(C(=O)c4ccco4)CC3)cc(C(C)(C)C)nc2c1-c1ccc(Cl)cc1
→ 1 | 10 | -13 | -5 | -2 | 3 | 13
Cc1cccc(CSCCNC(=O)CSCc2ccc([N+](=O)[O-])cc2)c1
→ -2 | -20 | -8 | 2 | 15 | 0 | -7
CC1CCCC(C)N1C(=O)Cn1cc(/C=C2/C(=O)Nc3ccccc32)c2ccccc21 (configuration not stated)
→ 7 | 16 | 8 | 7 | -4 | -2 | -5
NNC(=O)c1cn2ccccc2n1
→ -3 | 10 | -13 | -2 | 3 | 1 | -2
Cc1ccc(NC(=O)COc2ccc(S(=O)(=O)N3CCOCC3)cc2)cc1
→ 0 | 31 | 3 | -4 | 3 | -1 | 2
O=C(c1ccc(Br)cc1)c1cc(-c2ccccn2)c(N2CCOCC2)s1
→ 2 | -10 | -2 | -8 | -7 | -1 | -12
CCOc1ccccc1NC(=O)CCn1c(=O)oc2ccccc21
→ -2 | -11 | -7 | -5 | -2 | -1 | -2
Cc1ccc(/C=N\NC(=O)C2COc3cc4ccccc4cc3O2)o1 (configuration not stated)
→ 4 | -17 | -19 | 1 | 7 | -2 | -9
COC(=O)c1c(C)n(-c2ccccc2)c2ccc(O)cc12
→ 2 | 10 | -5 | -1 | -4 | 9 | 19
CCOc1ccc(N2C(=O)CC(Sc3nc(-c4cccs4)cc(C(F)(F)F)c3C#N)C2=O)cc1 (configuration not stated)
→ 0 | 26 | -5 | -7 | 4 | 0 | 3
O=C(CNS(=O)(=O)c1ccc(Br)cc1)N1CCOCC1
→ 6 | 21 | -1 | -6 | -1 | 0 | 7
Cc1nn(-c2ccccc2)c(Cl)c1/C=N/NC(=O)c1ccncc1
→ 1 | -13 | -10 | -11 | x | 0 | 3
COC(=O)c1cn[nH]c1NC(=S)Nc1ccccc1C
→ 4 | 12 | 3 | -1 | 3 | -1 | -9
COCCCn1c(N)c(-c2nc3ccccc3n2C)c2nc3ccccc3nc21
→ -2 | -32 | -14 | 3 | 2 | -5 | -3
COCCN1C(=O)C(O)=C(C(=O)c2cccs2)C1c1ccccc1 (configuration not stated)
→ -3 | -10 | -11 | 6 | -4 | 1 | 4
COCCn1c(Cc2ccccc2)nnc1SCc1nc2ccccc2c(=O)[nH]1
→ 6 | -1 | -12 | 2 | -4 | -1 | 20
Cc1cc2c(c(=O)o1)C1(C(=O)N(CC(=O)O)c3ccccc31)C(C#N)=C(N)O2 (configuration not stated)
→ 8 | -5 | -9 | -4 | -1 | 1 | -2
N/C(Cc1ccc([N+](=O)[O-])cc1)=N\OC(=O)COc1cccc2ccccc12
→ 1 | -14 | 1 | -11 | 7 | 1 | -20
O=C(Oc1c(Cl)cc(Cl)c2ccccc12)N1CCCC1
→ 0 | 15 | 3 | 9 | -2 | 1 | 16
Cc1nc(NC(=O)c2ccccc2)sc1-c1csc(Nc2cccc(F)c2)n1
→ 5 | 33 | -12 | -11 | -6 | 1 | 16
O=C1c2ccccc2CCCC12N=NCC2c1cccc2ccccc12 (configuration not stated)
→ 0 | 1 | -4 | -8 | -1 | -1 | -1
CCC(C)n1c(NC(=O)c2ccccc2)c(C#N)c2nc3ccccc3nc21 (configuration not stated)
→ 27* | -12 | x | -6 | -5 | 12 | -19
CSc1nsc(SC)c1NC(=O)OCC1CCCO1 (configuration not stated)
→ -2 | 7 | -13 | -4 | 9 | 2 | -3
O=C(NC(=S)NC1CCSC1=O)c1ccccc1Cl (configuration not stated)
→ 2 | 11 | -31 | 4 | 2 | 3 | -3
COC(=O)C1=C(C(=O)OC)C(c2cc(Cl)ccc2O)c2sc(=O)[nH]c2S1 (configuration not stated)
→ 5 | 1 | -3 | -9 | 0 | 2 | -6
O=C(CCN1CCOCC1)Nc1ccccc1
→ 3 | 19 | -5 | -7 | 2 | 2 | -8
CSc1ccc(CCNC(=O)CSc2ccsc2[N+](=O)[O-])cc1
→ 1 | -30 | -13 | -4 | 6 | 1 | -23
O=c1c(-c2nc3ccccc3s2)cccn1Cc1ccc(Cl)cc1
→ 3 | 13 | -19 | -10 | -5 | 15 | -8
Cc1cccc(NC(=S)NCc2ccccn2)c1
→ 0 | 0 | 5 | -5 | 2 | -1 | -4
CCOc1ccc2nc(SCC)[nH]c2c1
→ -4 | 4 | -5 | -10 | 6 | 0 | -5
Cn1c(CCN2CCN(c3ccccc3)CC2)nc2cc(NC(=O)c3ccco3)ccc21
→ 4 | 2 | -1 | -2 | 7 | 1 | 10
O=C(Nc1ccccn1)C(NS(=O)(=O)c1cccc2nsnc12)c1ccccc1 (configuration not stated)
→ 0 | 2 | -15 | -1 | -3 | 0 | -15
O=C(CSc1nc(-c2ccccc2)cs1)N1CCc2ccccc21
→ 2 | -6 | -76 | 13 | 0 | -1 | -5
COc1ccc(-c2cccc(C(=O)Nc3ccc(OC)c(OC)c3)c2)cc1
→ -1 | 7 | 1 | -7 | -2 | 0 | 9
COc1ccc(C2=NN(C)C(=NCc3ccccc3)SC2)cc1
→ -3 | 9 | 2 | -6 | 6 | -1 | -3
COc1cc(/C=N/NC(=O)c2cncc(Br)c2)ccc1OC(=O)c1ccc2c(c1)OCO2
→ 2 | 12 | -5 | -8 | 1 | 1 | 5
N#Cc1cc2c(nc1SC1CCCCC1O)CCCC2 (configuration not stated)
→ -2 | -2 | -17 | -6 | -3 | 2 | 1
CC1CCN(C2CCN(S(=O)(=O)c3ccc(F)cc3)CC2)CC1
→ -4 | -6 | -14 | -9 | 4 | -1 | -15
O=C(O)C1CCN(S(=O)(=O)c2cccnc2)CC1
→ -6 | 25 | 0 | -8 | 3 | 0 | -3
Cn1c(SCC(=O)NCc2ccc3c(c2)OCO3)nnc1-c1cc2ccccc2cc1O
→ 4 | -15 | -8 | -10 | 3 | 1 | -12
Oc1[nH]c2ccccc2c1N=Nc1ccc(C(F)(F)F)cn1
→ -1 | 0 | 3 | -8 | -1 | 0 | -7
CCC(=O)Nc1ccc(S(=O)(=O)N2CCN(c3ccc(F)cc3)CC2)cc1
→ 0 | -5 | -4 | -3 | 1 | -1 | 8
Cc1nc(-c2cccnc2)sc1C(=O)Nc1ccc(Cl)cc1
→ -3 | -3 | -5 | -8 | -1 | 0 | -13
O=C(Cn1cnc2cc(Cl)ccc2c1=O)Nc1ccc2c(c1)OCO2
→ 4 | -4 | -15 | -5 | 9 | 1 | -15
CCc1ccc(C(=O)c2oc3nc(C)cc(C)c3c2N)cc1
→ -4 | -5 | -8 | -2 | -2 | 4 | -23
Cn1c(Nn2cnnc2)nc2ccccc21
→ 3 | -5 | -8 | -3 | 2 | -1 | -9
CCCCNC(=O)CC(=O)Nc1ccccc1C(=O)O
→ -1 | -11 | 1 | 0 | 2 | 1 | 9
COc1ccc(NC(=O)COC(=O)CCCc2c[nH]c3ccccc23)cc1OC
→ 0 | -27 | -5 | -6 | 14 | 1 | -32

One compound at a time, from the list above:
`Cn1c(SCC(=O)NCc2ccc3c(c2)OCO3)nnc1-c1cc2ccccc2cc1O` reads p97 inhibitor = 4; NPY1 pot ag = -15; Mdm2 ligase inh = -8; RBBP9 inhibitor = -10; NPY Y1 blocker = 3; Hck Nef HTS = 1; NPY2 pot ag = -12
`CCc1ccc(C(=O)c2oc3nc(C)cc(C)c3c2N)cc1` reads p97 inhibitor = -4; NPY1 pot ag = -5; Mdm2 ligase inh = -8; RBBP9 inhibitor = -2; NPY Y1 blocker = -2; Hck Nef HTS = 4; NPY2 pot ag = -23

New compounds follow
Structure,p97 inhibitor,NPY1 pot ag,Mdm2 ligase inh,RBBP9 inhibitor,NPY Y1 blocker,Hck Nef HTS,NPY2 pot ag
CCC(C)NC(=O)C1CC(c2ccc(OC)cc2)=NO1 (configuration not stated),-1,15,1,-6,-4,-1,-11
CCC(C)(C)NC(=O)CC(c1ccc(OC)cc1)n1cccc1 (configuration not stated),0,-15,15,-4,-3,1,6
Cc1c(NC(=O)OCCNC(=O)Nc2ccccc2)sc(=S)n1C,-6,-8,0,-10,6,0,12
O=C(/C=C/c1ccccc1)N/C(=C\c1ccco1)C(=O)NCCO,-4,0,-11,-7,4,-2,-19
Cc1ccc(NC(=O)CN(Cc2ccccc2)S(C)(=O)=O)cc1C,-4,-4,1,1,-4,1,-23
COc1ccc(CCNC(=O)c2ccccc2NC(=O)c2ccco2)cc1OC,-3,-16,-9,-3,-5,0,2
COc1c2occc2cc2ccc(=O)oc12,2,-27,-8,4,4,3,-20
O=C(N/N=C/c1ccccn1)c1ccc(Br)cc1,1,-26,-8,-3,-2,3,4
CC(=O)c1cccc(NC(=S)NC(=O)CC(C)(C)C)c1,4,27,-8,3,2,0,2
Cc1oc2c(O)c(O)ccc2c(=O)c1-c1cnn(-c2ccccc2)c1,4,7,-19,-21,3,3,-6
O=C(NC(=S)NNC(=O)c1cnccn1)c1ccc(F)cc1,7,4,-10,4,-2,21,7
CC(C)NC(=O)c1noc2cc([N+](=O)[O-])ccc12,3,-5,-15,-7,7,1,-16
N#Cc1ccccc1CN1C(=O)S/C(=C/c2cccn2-c2cccc(C(=O)O)c2)C1=O,2,5,3,-8,9,1,-16
COC(=O)c1[nH]c2cc(C)ccc2c1NC(=O)CN1CCCc2ccccc21,4,-7,-22,-2,-9,1,1
CCOC(=O)c1c(C)n(C)c2ccc(OC)c(NC(=O)CN3CCN(Cc4ccccc4)CC3)c12,-2,-5,1,-10,9,1,3
Cc1sc2nc(SCc3ccccc3)n(Cc3ccco3)c(=O)c2c1C,5,8,-16,2,-2,0,-4
O=C(CN1C(=O)C2C3C=CC(C3)C2C1=O)NC1CCCc2ccccc21 (configuration not stated),2,3,5,-3,1,1,4
COc1cc2ccccc2cc1C(=O)Nc1ccc(Cc2ccncc2)cc1,2,-18,-10,-11,16,-5,-29
O=S(=O)(Nc1ccc(S(=O)(=O)N2CCCCC2)cc1)c1cccs1,-4,-11,-3,-4,3,0,1
Cc1cc(N/N=C/c2ccccc2[N+](=O)[O-])nc(-n2nc(C)cc2C)n1,2,-4,-3,-7,x,8,8
O=C1c2ccccc2C(=O)N1Nc1ccccc1,1,9,-1,-1,0,-2,3
O=S1(=O)CCN2C=Nc3sc4c(c3C2=N1)CCCC4,0,-8,-16,-5,0,1,-5
CCCc1cc(=O)oc2cc(OCc3nn[nH]n3)ccc12,5,-19,-6,1,-1,1,-2
Cc1cccn2c(/C=N/OCc3ccc(F)cc3)c(-c3ccc(Cl)cc3)nc12,2,20,-13,-1,-1,-1,-1
COc1ccc(-n2nc(C(=O)NCC(=O)Nc3ccccn3)c3ccccc3c2=O)cc1Cl,-8,8,-14,1,-3,1,2
CCOc1ccc(N(CCC#N)S(=O)(=O)c2ccc(OC)cc2)cc1,-2,8,-14,-10,8,0,4
Cc1ccccc1NC(=O)Cn1cnc2c1c(=O)n(C)c(=O)n2C,3,11,-21,-7,1,-1,5
O=C(CSc1nccn1-c1ncc(C(F)(F)F)cc1Cl)c1ccc(Cl)cc1,6,14,-11,-11,6,-1,0
